# High-throughput results from PubChem.
# VDR inh: Inhibitors of the vitamin D receptor (VDR): qHTS. Potency, µM, inactives show max response, negative = inhibition, most hits filed as inhibitors. 400,000 compounds, 0.93% hits. VDR-SRC2-3 peptide fluorescence polarization, 2 h. Vitamin D3 receptor (Homo sapiens), P11473. AID 504847, 2011; active = well fitted inhibition curve with a large enough effect; inconclusive = small, poorly fitted or top-dose-only effect, or another doubt; inactive = no such curve, though single readings can be large or run the other way; also: series mostly up to about 120 µM
# Target sequence (P11473 whole entry, looked up): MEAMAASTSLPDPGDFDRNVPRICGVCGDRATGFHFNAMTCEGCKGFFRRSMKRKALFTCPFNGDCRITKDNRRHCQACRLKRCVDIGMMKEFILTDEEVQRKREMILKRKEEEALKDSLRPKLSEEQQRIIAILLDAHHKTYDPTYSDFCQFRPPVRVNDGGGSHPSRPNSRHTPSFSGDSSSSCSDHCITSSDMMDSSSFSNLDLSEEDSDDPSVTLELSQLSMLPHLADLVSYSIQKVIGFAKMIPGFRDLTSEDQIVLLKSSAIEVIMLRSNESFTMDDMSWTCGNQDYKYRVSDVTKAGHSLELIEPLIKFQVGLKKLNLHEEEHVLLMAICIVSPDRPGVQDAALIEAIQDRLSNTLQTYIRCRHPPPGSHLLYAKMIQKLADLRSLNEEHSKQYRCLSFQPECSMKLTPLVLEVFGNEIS
#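 Reagent solutions, kept cold and dark, are dispensed first; compounds are then pinned in at 23 nl, plates briefly spun, and incubated 2 h at ambient temperature. Inhibition of VDR–SRC2-3 peptide binding is read by fluorescence polarization.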
# Numbers without * were called inactive; ? = inconclusive; & = joins results of further samples; [ ] = another dose, or the depositor's remark. % is scaled to controls: 0 for no effect and ±100 for the full control effect; potency is read from the fitted curve at half-maximal effect. Some of the compounds tested; count on the stated rates, not on these rows.
VDR inh | smiles
18% | COc1ccc(-n2cc(CN[C@H]3CCCCNC3=O)c(-c3cccc(F)c3)n2)cc1
1% | CCCC(c1nnnn1Cc1ccc(OC)cc1)N1CCC(C(N)=O)CC1 (centres undefined)
-15% | Cc1c(C)c(C)c(CO/N=C/c2cccs2)c(C)c1C
10% | COc1cccc(-c2cc(-c3cccnc3)nc(N)c2C#N)c1
19% | CCOc1ccc(CNCc2c(C(=O)O)c(C)n(Cc3ccc(C)cc3)c2C)cc1
-18% | C=CCn1c(NC(=O)c2ccco2)nc2ccccc21
9% | COC1=C(OC)C(=O)C(C/C=C(\C)CC/C=C(\C)CC/C=C(\C)CC/C=C(/C)CC/C=C(\C)CC/C=C(\C)CC/C=C(\C)CC/C=C(\C)CC/C=C(\C)CCC=C(C)C)=C(C)C1=O
18% | CC(C)(C)OC(=O)NCCCCCc1nnc(SCc2ccccc2)o1
-1% | O=C(CCc1nc(CN2CCN(S(=O)(=O)c3ccc(Cl)cc3)CC2)no1)N1CCCCC1
-10% | O=C(Cc1ccc(NC(=O)C2CCCN(C(=O)C3CCC3)C2)cc1)Nc1cccc(C(=O)N2CCCCC2)c1 (centres undefined)
-2% | CCCN1CNc2c(c(=O)[nH]c(=S)n2CCc2cc(Cl)cc(Cl)c2)C1
18% | CN(Cc1ccccc1)C(=O)NC1CCCCC1
-24% | COc1ccccc1C(=O)NC(=O)CSc1nc2nc(C)cc(C)n2n1
7% | Cc1ccc(CNCC2CCCO2)o1 (centres undefined)
89µM* | COc1ccc(NC(=S)NC(NC(=O)CCl)C(Cl)(Cl)Cl)c([N+](=O)[O-])c1 (centres undefined)
-2% | Cc1ccc(/C=C/C2=NN(C)C(=O)CC2)cc1
-14% | COc1ccc(Nc2nc(N3CCN(C)CC3)nc3ccccc23)c(OC)c1
-11% | COc1ccc(-c2cn3c(C)c(C(=O)NC(C)C)sc3n2)cc1
-5% | CCOC(=O)c1ccc(NC(=S)N2CCSC2c2ccc(Br)cc2)cc1 (centres undefined)
-15% | O=C(c1ccc(C(F)(F)F)cc1)N1CCN(c2ccc(N3CCOCC3)nn2)CC1
-12% | Cc1cc(C)c[n+](-c2[nH]c(=O)sc2/C=N/N=C(\N)[S-])c1
-7% | S=c1[nH]nc(COc2ccc(Cl)cc2)n1-c1ccc(Cl)cc1
47%[activator] | COc1ccc(C)cc1NC(=O)Nc1ccc2c(c1)CCC2
7% | CCCNS(=O)(=O)c1ccc(N2CCCC2=O)c([N+](=O)[O-])c1
-1% | COC(=O)C1=NN[C@H](C(=O)OC)[C@H]1c1ccccc1
-12% | COc1cccc(C(=O)OC2CCN(C)CC2)c1
-4% | CCOc1cc(NC(=O)C2CC2)c(OCC)cc1NC(=O)CCn1nnc2ccccc21
7% | Nc1nc(-c2cc3ccccc3o2)cs1
-1% | CCN(CC)C(=O)c1ccc(S(=O)(=O)NCc2cccnc2)cc1
-11% | COC(=O)c1ccc(C(=O)OC)c(NC2=NS(=O)(=O)c3ccccc32)c1
3% | CC1CCN(C(c2ccc(N(C)C)cc2)c2nnnn2Cc2ccc(F)cc2)CC1 (centres undefined)
-11% | COc1cccc(/C=N/Nc2nc3ccccc3n3cnnc23)c1
12% | CC(C)(C)c1nc(CN2CCCCC2)cc(CN2CCCCC2)c1O
-1% | O=C(CCC(=O)N/N=C/c1ccccc1O)NCc1ccccc1
-13% | CCc1nnc(NS(=O)(=O)c2ccc(N/C=C(\C=O)c3nc4cc(Cl)ccc4o3)cc2)s1
-2% | Clc1ccc(CSc2cc3c(nn2)-c2ccccc2CC3)cc1
20% | O=S(=O)(c1cccc2nsnc12)N1CCc2ccccc21
-18% | CCCc1ccc(C(=O)NNc2cccc(C)c2)cc1
-15% | COc1ccc(N2CCN(C(CNC(=O)C(=O)NCc3ccc4c(c3)OCO4)c3ccco3)CC2)cc1 (centres undefined)
0% | COc1ccnc2c1c(=O)n(Cc1cccc(Cl)c1)c(=O)n2C
19% | CC1CCN(S(=O)(=O)c2ccc3ncn(CC(=O)N4CCN(C)CC4)c(=O)c3c2)CC1
0% | O=C(COC(=O)c1ccc2c(c1)OCCO2)Nc1ccc(F)cc1F
-23% | COCc1ccc(C(=O)N2CCCC(Nc3ccc(F)c(F)c3)C2)s1 (centres undefined)
21% | COc1cccc(CNC(=O)CN2C(=O)CSc3ccc(S(=O)(=O)N(C)C)cc32)c1
-16% | COC(=O)C1CCN(C(=O)COC(=O)c2ccc(=O)n(Cc3ccccc3)n2)CC1
10% | COc1ccc(Cc2ccccc2C(=O)O)cc1
17% | CC(C)CNS(=O)(=O)c1cc2c3c(c1)CCC(=O)N3CCC2
-11% | O=C(CN1C(=O)CSc2ccc(S(=O)(=O)N3CCOCC3)cc21)NCCCN1CCc2ccccc2C1
-5% | Cc1cc(C)cc(-n2c(SCC(=O)N3CCc4ccccc43)nc3c([nH]c4ccccc43)c2=O)c1
? | O=C(Cn1cnc2c(OCc3ccccc3)ncnc21)NCc1ccccc1
-10% | CCOc1ccc(NC(=O)CN2C(=O)CSc3ccc(S(=O)(=O)N4CCOCC4)cc32)cc1
21% | O=C(CCCc1c[nH]c2ccccc12)Nc1ccc(S(=O)(=O)Nc2ncccn2)cc1
0% | S=C(Nc1ccccc1)N(CCN1CCOCC1)Cc1cccc(Cl)c1
? | CC1(C)C(/C=C/C=C/C=C/C=C2\N(CCCCS(=O)(=O)O)c3ccc4ccccc4c3C2(C)C)=[N+](CCCCS(=O)(=O)[O-])c2ccc3ccccc3c21
-8% | CCOc1cc(C2C3=C(CC(C)(C)CC3=O)N(CCCOC)C3=C2C(=O)CC(C)(C)C3)ccc1O
7% | COc1cccc(NC(=O)CN(C)C(=O)c2ccc(S(=O)(=O)Nc3ccccc3F)cc2)c1
-4% | O=c1ccc(NS(=O)(=O)c2ccccc2)cn1Cc1ccc(Cl)c(Cl)c1
-15% | Cc1cccc(NC(=O)C2CC(O)CN2C(=O)Oc2ccccc2)c1 (centres undefined)
-13% | CNS(=O)(=O)c1ccc(C(=O)NCC(=O)NCCc2ccc3c(c2)OCCO3)cc1
-20% | Cc1ccc(-n2nc(C(=O)NCCc3cccc(C)c3)c3c4ccccc4n(C)c3c2=O)cc1

# (continued)
VDR inh | smiles
12% | O=S(=O)(c1ccc(N2CCN(Cc3ccccc3)CC2)nc1)N1CCCC1
-8% | C/C(N)=C(/C#N)C(=O)COC(=O)c1cccc(O)c1
4% | Cc1ccc(C(=O)NN2CC(O)=C(c3nc(-c4cccc([N+](=O)[O-])c4)cs3)C2=N)cc1
-9% | CC1Sc2ccc(S(=O)(=O)CCC(=O)N(C)Cc3ccco3)cc2NC1=O (centres undefined)
-2% | COc1ccc(CNC(=O)C(=O)NCC2OCCN2C(=O)c2ccc(OC)cc2)cc1 (centres undefined)
-12% | CC(Sc1ccccn1)C(=O)Nc1ccc2c(c1)OCCO2 (centres undefined)
-8% | O=C(COC(=O)c1c2c(nc3ccccc13)CCN(Cc1ccccc1)C2)Nc1c(F)cccc1F
-9% | C[n+]1ccc(/C=C/c2c[nH]c3ccccc23)cc1
-2% | Cc1nn(-c2ccccc2)c2sc(C(=O)N(Cc3ccco3)C(C)C(=O)NC(C)(C)C)cc12 (centres undefined)
-21% | Cc1ccc(-c2nn(-c3ccccc3)cc2/C=C(\C#N)C(=O)NCc2ccccc2)cc1
-6% | Cc1noc(C)c1COc1ccc(C(=O)NNC(=O)c2ccccc2)cc1
-9% | Cc1ccc(NS(=O)(=O)c2ccc(C(=O)N3CC(C)CC(C)C3)cc2)cc1 (centres undefined)
14% | CSc1ccccc1C(=O)NCc1ccccc1C
0% | CC(CN1CCOCC1)OC(=O)c1ccccc1Cl (centres undefined)
-8% | CC(=O)Nc1ccc(C2NC(=O)CCC2[N+](=O)[O-])cc1 (centres undefined)
-5% | O=c1[nH]c(C2CCN(S(=O)(=O)c3ccc4c(c3)OCCO4)CC2)nc2c1nnn2Cc1ccccc1
-5% | O=C(Nc1cccnc1Cl)c1cccs1
2% | Cc1ccccc1NC(=O)CSc1nc(-c2ccccc2C)nc2cc(=O)[nH]n12
5% | CC1CCCN(S(=O)(=O)c2ccc(NC(=O)CNC3CCCC3)cc2)C1 (centres undefined)
-8% | COc1cccc(NC(=O)c2cc(C(=O)Nc3cccc(OC)c3)n(C)n2)c1
3% | COCCn1c(SCc2nc3ccccc3c(=O)[nH]2)nc2ccccc2c1=O
-14% | COc1ccc(-c2csc(-c3ccccc3)n2)c(OC)c1
23% | Cc1ccc(-c2c(C)sc3nc[nH]c(=O)c23)cc1C
? | Cc1ccc(S(=O)(=O)Nc2ccc(-c3cn4ccc(C)cc4n3)cc2)cc1
2% | O=S(=O)(Cc1ccccc1Cl)N1CCCCC1
-6% | Cc1ccc(-c2csc(NC(=O)Cn3cnc4c3c(=O)n(C)c(=O)n4C)n2)cc1C
12% | CCCP(=O)(CC(=O)N(CC)CC)c1ccccc1 (centres undefined)
-1% | CC(C)c1nc(CNC(=O)C2CCC(=O)N(CCc3cccc(F)c3)C2)cs1 (centres undefined)
5% | O=C(Cc1ccccc1[N+](=O)[O-])NCc1ccncc1
-3% | CCC(C)NC(=O)CNC(=S)N(Cc1ccccc1)Cc1cccnc1 (centres undefined)
? | O=C(Cn1nc(C(=O)O)c2ccccc2c1=O)Nc1cccc(Br)c1
-5% | O=C(CSc1nc(-c2ccccc2)c(-c2ccccc2)o1)NC1CCS(=O)(=O)C1 (centres undefined)
-16% | OCCN(Cc1ccccc1)C(=S)Nc1ccc(Cl)cc1Cl
22µM* | CCCCC(=O)Nc1sc(C(=O)N(CC)CC)c(C)c1C(=O)OC
12% | COc1cc(OC)cc(C(=O)NNC(=O)c2cc3c(s2)CCCC3)c1
2% | Cc1cc2cc(CNC(=O)Nc3ccc(Cl)c(Cl)c3)ccc2n1C
-25% | O=C(COC(=O)c1cncc(Br)c1)Nc1ccc(F)c(F)c1F
-1% | COc1ccc(C2CC(c3ccccc3)=NN2C(=O)COC(=O)c2ccc(S(C)(=O)=O)cc2)cc1 (centres undefined)
-6% | COc1ccc(NC(=O)C(=O)NNC(=O)c2cccs2)c(OC)c1
7% | COc1ccc(CC(=O)Oc2ccc(C#N)cc2)cc1
-13% | Cc1c(N/N=C(\C#N)C(=O)c2ccccc2)c(=O)n(-c2ccccc2)n1C
-12% | OCc1c(Cl)nc2ccccn12
? | CCN(CC)C(=S)Sc1c(-c2ccccc2)c2cc(Cl)ccc2[nH]c1=O
-17% | CCN(CC)CC#CC(OC)(c1ccccc1)c1ccccc1
? | Cc1ccsc1C1NC(=O)c2c(sc3c2CCCC3)N1 (centres undefined)
-8% | Cc1ccccc1-c1nnn(CC(=O)Nc2sc3c(c2C#N)CCC(C(C)(C)C)C3)n1 (centres undefined)
2% | COC(=O)c1c(C)nc2ccccc2c1-c1ccccc1
-26% | Cc1nn(Cc2ccc([N+](=O)[O-])cc2)c(=O)n1N(C)c1ncc(C(F)(F)F)cc1Cl
8% | S=C(Nc1ccccc1)N1CCN(c2ccccn2)CC1
-4% | CC1Cc2cc(S(=O)(=O)N3CCCCC3C)ccc2N1C(=O)C1CCC1 (centres undefined)
4% | Cn1c(C(=O)O)ccc1S(=O)(=O)N1CCCCCC1
-1%&-9% | C[C@@H]1C(=O)NC2=Nc3cccc(Cl)c3CN21
7% | CSCC[C@H](N)C(=O)N[C@@H](CO)C(=O)N[C@@H](CCCN=C(N)N)C(=O)N1CCC[C@H]1C(=O)N[C@@H](C)C(=O)N[C@@H](CS)C(=O)N1CCC[C@H]1C(=O)N[C@@H](CC(N)=O)C(=O)N[C@@H](CC(=O)O)C(=O)N[C@@H](CCCCN)C(=O)N[C@@H](Cc1ccc(O)cc1)C(=O)N[C@@H](CCC(=O)O)C(=O)O
20% | Cc1ccsc1/C=N/NC(=O)c1ccc(-n2cccc2)cc1
-15% | c1ccc(CCNCc2ccco2)nc1
2% | CCOC(=O)C(NC(C)=O)C(=O)Nc1ccc(OC)cc1 (centres undefined)
10% | COCCN(C(=O)Cc1cccs1)C(C(=O)NC1CCCC1)c1ccc(OC)c(OC)c1 (centres undefined)
-19% | COc1ccc(OCCNc2cc(N3CCCCC3)ccc2[N+](=O)[O-])cc1
-7% | NNC(=O)CCn1nnc2ccccc21
-7% | CCOC(=O)C1CCN(c2c([N+](=O)[O-])c(C(Cl)Cl)nn2-c2ccccc2)CC1
-29% | O=C1NNC(c2ccccc2)=N/C1=C\c1ccccc1Cl
18% | Cc1cccc(-n2ncc3c(Nc4ccc(Oc5ccc(Cl)cc5)cc4)ncnc32)c1
-20% | NS(=O)(=O)c1ccc(NC(=O)CN2CCc3ccccc3C2)cc1
